# RecA splice inh – Mtb RecA intein splicing inhibitors, primary screen, biochemical, fluorescence, HTS; Protein RecA (Mycobacterium tuberculosis (strain ATCC 25618 / H37Rv)), P9WHJ3; cell-free RecA intein splicing; inhibition, %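 (about 9 µM by stock and volumes)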; actives 0.75% (n = 290,000); AID 2221, 2009; in the data active = inhibition above about 30%; inconclusive = no clear call, values can overlap the other calls;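 note: 0% = vehicle wells and 100% = reference inhibitor control wells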
# Target sequence (P9WHJ3 whole entry, looked up, canonical isoform): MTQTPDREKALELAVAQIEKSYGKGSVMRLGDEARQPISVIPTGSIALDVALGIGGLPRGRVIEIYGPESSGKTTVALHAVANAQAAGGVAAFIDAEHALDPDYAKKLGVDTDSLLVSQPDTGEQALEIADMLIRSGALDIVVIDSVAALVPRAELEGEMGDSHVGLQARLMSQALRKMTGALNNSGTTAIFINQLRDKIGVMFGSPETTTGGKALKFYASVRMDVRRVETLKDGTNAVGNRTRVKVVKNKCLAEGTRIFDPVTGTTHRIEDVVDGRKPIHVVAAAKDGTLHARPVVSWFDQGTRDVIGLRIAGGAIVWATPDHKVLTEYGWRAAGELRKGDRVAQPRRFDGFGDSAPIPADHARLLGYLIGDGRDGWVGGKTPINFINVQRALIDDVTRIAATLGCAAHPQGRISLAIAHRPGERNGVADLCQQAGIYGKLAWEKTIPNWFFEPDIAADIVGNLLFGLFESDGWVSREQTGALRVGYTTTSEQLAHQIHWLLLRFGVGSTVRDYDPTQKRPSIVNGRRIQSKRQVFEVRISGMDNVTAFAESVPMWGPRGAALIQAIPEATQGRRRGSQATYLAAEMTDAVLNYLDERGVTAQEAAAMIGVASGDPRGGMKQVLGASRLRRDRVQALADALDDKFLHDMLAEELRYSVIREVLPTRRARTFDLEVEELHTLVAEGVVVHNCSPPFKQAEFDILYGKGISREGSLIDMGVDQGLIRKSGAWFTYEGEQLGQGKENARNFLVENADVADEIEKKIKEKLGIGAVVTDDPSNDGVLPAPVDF
# Mtb betalactam – beta-lactam sensitization of Mtb H37Rv, H37Rv. M. tuberculosis H37Rv growth with meropenem, percent inhibition; hits of this screen are not shown here. inhibition, % at 25 µM. actives 0.27% (n = 330,000). AID 434955, 2010;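 active = about 74% or more and at least 40 points above the plate without the antibiotic, then above 30% in a dose series; inconclusive = first-round hits that could not be retested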;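 note: growth measured after seven days incubation then overnight dye step; 0% = bacteria only wells and 100% = bacteria with antibiotic; twin plates without the antibiotic show which effects depend on it; some results filed as inactive read as strong as hits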
# YopH inh – YopH tyrosine phosphatase inhibitors, primary screen, biochemical, fluorescence Ex485/Em525. actives 0.16% (n = 140,000). YopH tyrosine phosphatase [Yersinia enterocolitica]. inhibition, %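 (about 10 µM by stock and volumes)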;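 active = inhibition of 50% or more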;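 note: controls were vehicle for no effect and minimum signal wells for full effect; inactives centre near -20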
# Arbovirus inh – antivirals against arbovirus infection, primary screen, cell-based, full library, 10K replicate subset. actives 0.37% (n = 200,000). inhibition, % at 10 µM. arbovirus infection cell-based antiviral screen;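 active = inhibition from about 30%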;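 note: bluetongue infection of BSR cells; cell survival read as ATP light after 72 h; 0% = infected wells without compound and 100% = uninfected wells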
# Mtb H37Rv – M. tuberculosis H37Rv growth inhibitors, H37Rv strain (AID 1626); M. tuberculosis H37Rv growth inhibition; higher % means a stronger effect; inhibition, % at 10 µM, or IC50 in µM where a hit was titrated; actives 0.95% (n = 220,000);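 active = confirmed in a dose series; inconclusive = inhibition above 80% but not taken into the dose series; inactive = below 80% or under 30% at every dose of the series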;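 note: bacteria incubated seven days before Alamar blue readout; 0% = bacteria only wells and 100% = bacteria with antibiotic wells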
# Arbovirus inh repeat – also measured in Arbovirus inh; calls as there; inhibition, %; measured here: 10K subset replicate screen; many hits read low in the repeat;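 first of two repeat runs on a subset; 0% = infected and 100% = uninfected wells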
# The depositor's hits bear a star; ? = inconclusive; · = no result given. A portion of the library (hit frequency here may not be typical).
SMILES,RecA splice inh,Mtb betalactam,YopH inh,Arbovirus inh,Mtb H37Rv,others
C=CCn1c(CCNC(=O)c2ccco2)nc2ccccc21,-8.5,-4,·,·,·,
C/C(=N\NC(=O)COc1ccc(C(C)(C)C)cc1)c1cc2ccccc2o1,1.2,7,-29,-5,2%,
O=C1c2ccccc2C(=O)N1CC(O)COCc1ccccc1 (centres undefined),0.3,5,-33,-7,5%,
O=C1/C(=C\c2ccco2)CCC/C1=C\c1ccco1,-1.7,7,-10,5,-5%,
FC(F)(F)c1cccc(Cc2noc(CN3CCCC3)n2)c1,1.3,-5,·,2,3%,
O=C(Cc1ccc(Cl)cc1)N/N=C/c1ccccc1,-0.3,3,·,1,-7%,
O=C(c1cccs1)N1CCN(Cc2nc3ccccc3c(=O)[nH]2)CC1,2.3,-6,-14,7,6%,
CCOC(=O)CC(NC(=O)c1cccc2c1C(=O)N(Cc1cccnc1)C2)c1ccc(OC(C)C)cc1 (centres undefined),1.3,1,·,-8,1%,
CCOc1ccc(N/C=C/C(=O)c2cc(OC)c(OC)c(OC)c2)cc1,-6.5,97,·,·,·,
Cc1cccc(OCC(=O)NNC(=O)c2cccs2)c1,0.5,-1,·,2,1%,
C=CCN1C(=O)/C(=C\c2ccco2)C(C(=O)OC)=C1C,1.0,8,-2,4,1%,
COc1cc(/C=C/C(=O)OCC(=O)Nc2ccc(C)cc2[N+](=O)[O-])ccc1O,1.5,-3,·,-4,3%,
Cc1cccc(CC(C)NC(=O)c2oc3c(F)cccc3c2C)n1 (centres undefined),0.6,4,·,·,·,
CCOc1ccc(NC(=O)Nc2cc(OCC(F)(F)F)cc(OCC(F)(F)F)c2)cc1,-0.2,3,-39,-4,5%,
CCN(CC)CCN1C(=O)c2oc3ccccc3c(=O)c2C1c1ccc(F)cc1 (centres undefined),-0.9,-15,-14,3,-4%,
Cn1cccc1C(=O)NNC(=O)COc1ccccc1F,0.4,-17,·,·,·,
COC(=O)c1ccc(C2C(C(=O)c3cc4ccccc4o3)=C(O)C(=O)N2CCN2CCOCC2)cc1 (centres undefined),-1.7,2,·,·,·,
COc1cccc(-c2ccc(NC(=O)C3CCCN(Cc4cc(C)[nH]n4)C3)cc2)c1 (centres undefined),1.8,?,·,·,·,
CCC(=O)NCc1ccc(-c2nc3ncccc3o2)cc1,-3.4,-8,·,·,·,
CC1(C)NC(=O)N(CCOCCOc2c(Cl)cc(Cl)cc2Cl)C1=O,-4.0,-3,-3,7,-4%,
CCOC(=O)C1CCN(C(c2cc(OC)c(OC)c(OC)c2)c2sc3nc(C)nn3c2O)CC1 (centres undefined),0.3,-7,-17,1,38%,
CC(C(=O)O)n1c2ccccc2c2cnn(C)c(=O)c21 (centres undefined),-1.4,-3,·,·,·,
CC(C)=CCN1CCN(Cc2ccc(C#CC(C)(C)O)s2)CC1CCO (centres undefined),-0.4,8,·,-10,-8%,
CCCCn1nc(NC(=O)CCC)c2cc3cc(OC)ccc3nc21,-52,11,·,·,·,
Cn1cc(CN2CCC(CO)(CCCc3ccccc3)CC2)c(-c2ccccc2)n1,-1.1,-11,·,·,7%,

# Part of the list above in order of count of non-hydrogen atoms, low to high:
SMILES,RecA splice inh,Mtb betalactam,YopH inh,Arbovirus inh,Mtb H37Rv,others
O=C(Cc1ccc(Cl)cc1)N/N=C/c1ccccc1,-0.3,3,·,1,-7%,
C=CCN1C(=O)/C(=C\c2ccco2)C(C(=O)OC)=C1C,1.0,8,-2,4,1%,
CCC(=O)NCc1ccc(-c2nc3ncccc3o2)cc1,-3.4,-8,·,·,·,
C=CCn1c(CCNC(=O)c2ccco2)nc2ccccc21,-8.5,-4,·,·,·,
O=C1c2ccccc2C(=O)N1CC(O)COCc1ccccc1 (centres undefined),0.3,5,-33,-7,5%,
CC1(C)NC(=O)N(CCOCCOc2c(Cl)cc(Cl)cc2Cl)C1=O,-4.0,-3,-3,7,-4%,
O=C(c1cccs1)N1CCN(Cc2nc3ccccc3c(=O)[nH]2)CC1,2.3,-6,-14,7,6%,
CC(C)=CCN1CCN(Cc2ccc(C#CC(C)(C)O)s2)CC1CCO (centres undefined),-0.4,8,·,-10,-8%,
C/C(=N\NC(=O)COc1ccc(C(C)(C)C)cc1)c1cc2ccccc2o1,1.2,7,-29,-5,2%,
COc1cc(/C=C/C(=O)OCC(=O)Nc2ccc(C)cc2[N+](=O)[O-])ccc1O,1.5,-3,·,-4,3%,
CCN(CC)CCN1C(=O)c2oc3ccccc3c(=O)c2C1c1ccc(F)cc1 (centres undefined),-0.9,-15,-14,3,-4%,
COc1cccc(-c2ccc(NC(=O)C3CCCN(Cc4cc(C)[nH]n4)C3)cc2)c1 (centres undefined),1.8,?,·,·,·,
CCOc1ccc(NC(=O)Nc2cc(OCC(F)(F)F)cc(OCC(F)(F)F)c2)cc1,-0.2,3,-39,-4,5%,
CCOC(=O)C1CCN(C(c2cc(OC)c(OC)c(OC)c2)c2sc3nc(C)nn3c2O)CC1 (centres undefined),0.3,-7,-17,1,38%,
COC(=O)c1ccc(C2C(C(=O)c3cc4ccccc4o3)=C(O)C(=O)N2CCN2CCOCC2)cc1 (centres undefined),-1.7,2,·,·,·,
CCOC(=O)CC(NC(=O)c1cccc2c1C(=O)N(Cc1cccnc1)C2)c1ccc(OC(C)C)cc1 (centres undefined),1.3,1,·,-8,1%,

# Remaining list, next part
SMILES,RecA splice inh,Mtb betalactam,YopH inh,Arbovirus inh,Mtb H37Rv,others
CCOC(=O)c1c[nH]n(-c2ccccc2)c1=O,8.5,-2,·,6,-2%,
COc1ccccc1/C=C1\SC(=S)N(Nc2nc(C)cc(C)n2)C1=O,-1.9,97,-48,-7,-4%,
CN(C)S(=O)(=O)c1ccc(C(=O)OCCc2ccccc2)cc1,0.3,-4,·,·,·,
CCN(C(=O)COC(=O)Cc1c[nH]c2ccccc12)C1CCS(=O)(=O)C1 (centres undefined),0.7,-8,·,·,·,
COc1ccccc1N1CCN(CC(=O)N(CC(C)C)c2c(N)n(CC(C)C)c(=O)[nH]c2=O)CC1,0.4,2,·,4,-1%,
O=C1CCC(=O)N1CNc1ccccn1,0.7,-2,-16,3,5%,
COc1ccc(N2C(=O)c3cc4ccccc4cc3C2=O)cc1,1.7,-3,·,·,·,
Cc1nc2ccccc2n1S(=O)(=O)c1ccc(Br)cc1,1.4,1,-32,4,-3%,
COc1ccc(OC)c(/C=N\NC(=O)c2cc3c(ccc4ccccc43)o2)c1,-9.0,3,·,·,·,
O=C(Nc1ccnn1C1CCN(C(=O)c2ccc(F)cc2)CC1)C1CCOC1 (centres undefined),2.9,?,·,·,·,
CCOC(=O)c1c(-c2ccc(F)cc2)csc1NC(=O)C1CC=CCC1C(=O)O (centres undefined),2.2,0,·,23,-3%,
CCC(C)CCN1C(Nc2ccccc2)=NC[C@@H]1Cc1ccccc1 (some centres undefined),0.2,-7,·,·,·,
CCOc1ccccc1-c1noc(CCCC(=O)NC2CCCCC2)n1,1.6,-1,·,·,·,
O=C(NCc1ccccc1)c1c[nH]c2ccc(S(=O)(=O)Nc3ccc4c(c3)OCCO4)cc2c1=O,16,31,-41,-10,-1%,
CN(C)C(=O)Oc1ccc([N+](=O)[O-])cc1,0.5,-2,·,4,2%,
COc1ccc(-c2cc(C(=O)N3CCN(Cc4ccccc4)CC3)no2)cc1OC,3.5,-9,-33,-17,-9%,
COc1ccccc1N1CCN(C(=O)CCS(=O)(=O)c2ccc3c(c2)oc(=O)n3C)CC1,-0.8,0,·,·,·,
CCOc1ccccc1Nc1nnc(SCC(=O)Nc2cccc(S(=O)(=O)NC3=NCCCCC3)c2)s1,3.6,-1,-35,20,-10%,
CC(=O)OCCn1c(=O)c2cc3c(=O)n(CCOC(C)=O)c(=O)c3cc2c1=O,3.6,-4,-21,0,8%,Arbovirus inh repeat=6
O=C(Nc1nncs1)c1ccccc1NS(=O)(=O)c1cccs1,-1.6,-1,-70,7,0%,Arbovirus inh repeat=11
O=C(NCc1ccc(Cl)cc1)C(=O)NCC1OCCN1S(=O)(=O)c1cc(F)ccc1F (centres undefined),0.5,-4,·,·,·,
Cc1ccc(C(=O)O)cc1NC(=O)CSc1ncnc2sc3c(c12)CCC3,-0.6,-5,·,·,-3%,
Cc1noc(NS(=O)(=O)c2ccc(NC(=O)c3oc4ccc(Cl)cc4c3C)cc2)c1C,2.4,-12,·,·,·,
Cc1ccccc1Cn1c2ccccc2c2cn[nH]c(=O)c21,0.7,5,-39,7,1%,
CC(C)(C)c1csc(Sc2ncccc2[N+](=O)[O-])n1,-19,31,·,·,7%,

# Overlap with the part before: 4 compounds, then new ones.
SMILES,RecA splice inh,Mtb betalactam,YopH inh,Arbovirus inh,Mtb H37Rv,others
Cc1ccc(C(=O)O)cc1NC(=O)CSc1ncnc2sc3c(c12)CCC3,-0.6,-5,·,·,-3%,
Cc1noc(NS(=O)(=O)c2ccc(NC(=O)c3oc4ccc(Cl)cc4c3C)cc2)c1C,2.4,-12,·,·,·,
Cc1ccccc1Cn1c2ccccc2c2cn[nH]c(=O)c21,0.7,5,-39,7,1%,
CC(C)(C)c1csc(Sc2ncccc2[N+](=O)[O-])n1,-19,31,·,·,7%,
COC(=O)c1ccc(C2CC(=O)NC3=C2C(=O)CCC3)cc1 (centres undefined),-8.3,-1,-16,1,-4%,
COC(=O)c1ccc(-c2nc(O)c(C)s2)cc1,1.5,4,·,8,3%,
Nc1nc(Nc2ccccc2)nc2c1ncn2[C@@H]1O[C@H](CO)[C@@H](O)[C@H]1O,-0.1,-1,·,·,-9%,
O=C(c1ccncc1)N1CCN(S(=O)(=O)c2cccc(Cl)c2)CC1,-1.4,-2,·,·,·,
O=C(NNc1nc2c(F)cccc2s1)c1cc(=O)c2ccccc2o1,-2.9,-4,·,11,·,
CN1CCN(S(=O)(=O)c2ccc(NC(=O)c3ccc(F)cc3)cc2)CC1,-0.7,-8,34,8,-11%,
N#Cc1ccc(C(=O)Nc2nc(-c3cccs3)c(C(=O)C(F)(F)F)s2)cc1,-2.4,-8,-10,3,·,
CC1(C)CC(=O)C=C(NNC(=O)c2cccnc2)C1,-2.9,-3,·,·,8%,
CC1CCCCC1NCC(=O)NCc1ccc(F)cc1 (centres undefined),-0.8,0,·,-2,2%,
O=c1cnnc(Nc2ccc(Cl)c(C(F)(F)F)c2)[nH]1,0.6,-11,·,-2,7%,
Cc1ccc(S(=O)(=O)N(C#N)c2nc(C)cc(C)n2)cc1,0.8,12,-66,5,-8%,
CCSc1nc(C)nc2c1oc1ccccc12,-2.3,-6,-42,8,1%,
CNS(=O)(=O)c1cc(OC)c(OC)cc1CC(=O)OC,-1.4,0,·,-4,4%,
CNC(=O)C(=O)NCC(c1cccs1)S(=O)(=O)c1ccc(F)cc1 (centres undefined),-0.3,-4,·,·,·,
CCc1nc(NCCC(C)C)c(C#N)c2c1CCCC2,4.5,0,4,-5,6%,
COC(=O)[C@]12C(=O)C(C)=C(O)[C@@]1(C)C(C)=CC1[C@@]34CC[C@@H](OC(C)=O)C(C)(C)C3C(C[C@]12C)OC4=O (some centres undefined),-2.4,-4,·,·,-10%,
O=C(OCc1nnc(-c2ccccc2)o1)c1cc(S(=O)(=O)N2CCOCC2)ccc1F,-0.6,-5,·,·,·,
COc1ccc(C(C(=O)NC2CCCC2)N(C(=O)c2ccco2)c2ccccc2OC)cc1 (centres undefined),7.3,7,·,·,·,
Cc1sc2nc(CSCC(=O)N(C)CC(=O)Nc3ccc(F)cc3)[nH]c(=O)c2c1C,-2.3,-10,·,·,·,
COc1ccc(CC(=O)NCc2ccccc2Cl)cc1S(=O)(=O)N1CCOCC1,0.3,1,-34,0,-12%,
NC1=NCc2ccccc21,-2.7,-1,-40,-6,-10%,
Cc1sc(NC(=S)Nc2ccc(F)cc2)c(C(N)=O)c1C,-5.0,-3,·,0,5%,

# Assay outcomes deposited in PubChem BioAssay by several laboratories.
